TRPV1 potentiator – potentiators of human vanilloid receptor 1 (TRPV1). Q8NER1. AID 540277. potentiation, % at 8.33 µM. TRPV1-expressing cells, Fluo-8 calcium influx, capsaicin EC20 potentiation; host cell line not named in the record; control for the full effect not named in the record. hit rate 0.02% among 320,000; active means potentiation above 80%; inconclusive means 30% to 80%; inactive means below 30%; note: 0% is about no effect
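Cells expressing TRPV1 were dye-loaded with Fluo-8 and read kinetically: 10 s baseline, 3 min after compound (agonist portion), then 2 min after EC20 capsaicin (allosteric enhancer portion). Calcium-bound dye fluorescence at 480/520 nm.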
gsp agonist – agonists of gsp mutant (McCune-Albright syndrome) | Potency, µM (highest dose often 76.9 µM), inactives show at the highest dose activation (cAMP increase), most hits filed as activators | gsp mutant cells, cAMP HTRF, 30 min; control for the full effect not named in the record | hit rate 0.13% among 340,000; active = well fitted activation curve with a large enough effect; inconclusive = small, poorly fitted or top-dose-only effect, or another doubt; inactive = no such curve, though single readings can be large or run the other way; cell line not stated here;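 note: phosphodiesterase inhibitor Ro 20-1724 added with compounds to block cAMP breakdown; potency is the fitted concentration of half-maximal effect; nearly all actives have a fitted effect of over 60% in size; about a fifth of the inactives were tested at one dose only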
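Cells stably selected in G418 were plated at 2000/well, grown 16-24 hr, then given compounds in DMSO with the PDE inhibitor […] (300 uM solution added) for 30 min at 37C; cAMP was read by HTRF.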
TRPML1 blocker – inhibitors of human TRPML1 channel; Q9GZU1; TRPML1-inducible cells, Ca2+ dye fluorescence, FDSS; hits give low values; inhibition of EC80 agonist-evoked calcium signal; activity change, negative = inhibition, % (concentration not given with the values); hit rate 0.02% among 390,000; AID 624415; in the data active means activity change below about -50%; inconclusive means about -30% to -50%; inactive means above about -30%;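 note: stimulus is agonist 54-4 at its EC80 concentration; % is set by controls: 0 for no effect and ±100 for the full control effect; compound concentration not given in the record; the text of the record puts the active cut at -80%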
Target sequence (Q9GZU1 whole entry, looked up): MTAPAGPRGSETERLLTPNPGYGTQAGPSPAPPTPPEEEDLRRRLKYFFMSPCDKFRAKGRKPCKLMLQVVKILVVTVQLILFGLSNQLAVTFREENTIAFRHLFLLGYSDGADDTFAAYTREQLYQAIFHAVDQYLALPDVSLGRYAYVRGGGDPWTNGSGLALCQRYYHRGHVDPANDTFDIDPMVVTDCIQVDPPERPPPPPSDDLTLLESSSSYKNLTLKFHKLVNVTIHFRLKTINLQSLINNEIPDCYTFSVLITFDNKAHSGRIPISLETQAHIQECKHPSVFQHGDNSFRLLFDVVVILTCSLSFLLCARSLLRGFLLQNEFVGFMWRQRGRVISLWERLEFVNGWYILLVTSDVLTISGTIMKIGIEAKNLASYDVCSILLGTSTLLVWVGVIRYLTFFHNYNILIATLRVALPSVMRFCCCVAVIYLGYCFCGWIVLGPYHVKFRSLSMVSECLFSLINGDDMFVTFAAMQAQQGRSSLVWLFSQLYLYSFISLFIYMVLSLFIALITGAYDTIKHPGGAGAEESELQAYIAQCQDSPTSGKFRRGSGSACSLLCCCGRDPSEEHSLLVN
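Calcium fluorescence in TRPML1-DL cells induced overnight with Tet: a 110 s read after compound pin addition, then a 110 s antagonist read after challenge with 54-4 at 4 uM final (EC80).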
ClpP mod – qHTS Assay for Activators of ClpP. ATP-dependent Clp protease proteolytic subunit (Bacillus subtilis (strain 168)), P80244. purified B. subtilis ClpP, FRET peptide cleavage, 20 min. Potency, µM (top dose mostly 57.5 µM), inactives show at the highest dose activity change, negative = active. hit rate 1.9% among 340,000. AID 651965, 2013; active = well fitted falling curve with a large enough effect; inconclusive = small, poorly fitted or top-dose-only effect; inactive = no such curve, though single readings can be large or run the other way; note: potency is the fitted concentration of half-maximal effect; the source files actives as falling curves though it sought activators and does not explain the sign; nearly all actives have a fitted effect of over 65% in size; many hits overshoot -100%
Target sequence (P80244 whole entry, looked up): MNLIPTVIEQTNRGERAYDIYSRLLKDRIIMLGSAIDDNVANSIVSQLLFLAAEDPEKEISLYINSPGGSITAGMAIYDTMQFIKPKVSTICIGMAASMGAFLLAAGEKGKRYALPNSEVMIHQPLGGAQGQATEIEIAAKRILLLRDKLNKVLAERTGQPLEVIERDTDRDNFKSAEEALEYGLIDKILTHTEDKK
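Buffer: 100 mM Tris/HCl pH8, 100 mM KCl, 0.05% low protease BSA, 2.5% glycerol, 0.01% Tween-20. ClpP 10 microg/mL final; 20 min RT; delta FRET normalized to ADEP and DMSO controls.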
gsp antagonist – antagonists of gsp mutant (McCune-Albright syndrome) | gsp-mutant cells, cAMP HTRF, 30 min; control for the full effect not named in the record | Potency, µM (doses to about 76.9 µM), without a hit: at the highest dose activity change, negative = inhibition, hits mostly inhibitors | hit rate 0.4% among 340,000 | AID 624288; active = falling curve of any shape with a large fitted effect; inconclusive = falling curve, mostly with a smaller effect; inactive = flat or rising curve; cell line not stated here;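 note: intracellular cAMP measured with PDE inhibitor Ro 20-1724 present during compound exposure; potency is the fitted concentration of half-maximal effect; % is set by controls: 0 for no effect and ±100 for the full control effect; nearly all actives have a fitted effect of over 65% in size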
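Measurement of cellular cAMP by homogeneous time-resolved fluorescence following a 30 min compound exposure at 37C. The PDE inhibitor […] was present throughout; the assay buffer was DPBS with 0.05% BSA and 0.005% Tween 20.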
Sfp PPTase inh – blocks B. subtilis Sfp PPTase activity; Q9F4F7; Biochemical Sfp PPTase activity, qHTS; Potency, µM, for inactives: max response, negative = inhibition, actives largely listed as inhibitors; hit rate 3.5% among 310,000; active = well fitted inhibition curve with a large enough effect; inconclusive = small, poorly fitted or top-dose-only effect, or another doubt; inactive = no such curve, though single readings can be large or run the other way;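 note: the enzyme is Sfp with the accession as filed and its product quenches rhodamine fluorescence; potency is the fitted concentration of half-maximal effect; 0% = enzyme reaction without inhibitor and -100% = no enzyme wells; top concentration of the series not given in the record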
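Fluorescence-quenching assay with 15 nM Sfp, 5 uM rhodamine-CoA and 12.5 uM BHQ-2-labelled ybbR peptide in pH 7.6 Hepes/MgCl2 buffer. Enzyme was pre-incubated with compound for 15 min at room temperature. Rate was taken from the 30-min fluorescence change (525/598 nm).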
Menin-MLL FL inh – inhibitors of human menin-MLL interaction, wild-type MLL peptide; Fluorescence polarization, fluorescein-MLL peptide displacement from menin; FP activity change, % at 61.4 µM; 290,000 tested, under 10 active; inconclusive = falling polarisation curve, or a change in total fluorescence; inactive = total fluorescence flat and polarisation flat or rising; no compound was filed as active; the % refers to the polarisation; negative = inhibition;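 note: % of control where 0% means no effect; inhibitors lower the polarisation; unlabelled MLL peptide was the positive control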
The depositor's hits bear a star; ? = inconclusive; . = not tested or not shown; & = joins results of further samples; [ ] = dose if it differs, or a comment.

SMILES	TRPV1 potentiator	gsp agonist	TRPML1 blocker	ClpP mod	gsp antagonist	Sfp PPTase inh	Menin-MLL FL inh
CC(=O)c1c(-c2ccccc2)[nH]c2ccccc12	-17	5%[15.4 µM]	-7	-0.8%	0%	14%	3.7
CC(=O)c1ccc(S(=O)(=O)Nc2ccc(-c3cn4c(n3)SCC4)cc2)cc1	?	?	2	-1.0%	-26%	-9%	-1.9
CN(C(=O)CC(=O)Nc1ccc(Cl)c(Cl)c1)c1ccccc1	?	-9%[15.4 µM]	66	.	.	-5%	-3.6
Cc1[nH]c(=O)[nH]c(=O)c1S(=O)(=O)N1CCCC(C(=O)NCc2ccco2)C1 (stereo not given)	10	12%	-8	-0.2%	4%	7%	0.2
COc1ccc(-n2c(C)nn(CC3CC3)c2=O)cc1	0	38%[15.4 µM]	10	.	-2%	4%	-1.9
COc1ccc(NC(=O)CSc2nnc(-c3ccccc3)n2N)cc1	30	0%	14	-1.5%	1%	7%	-0.8
CCCCCCN1C[C@H](n2cc(C3CC3)nn2)[C@@H](O)C[C@@H]1c1ccc(C)cc1	.	15%	-9	0.9%	.	.	.
O=C(CN1C(=O)NC2(CCCCC2)C1=O)N1CCN(C(=O)c2cccs2)CC1	26	27%	6	-11%	1%	.	.
CCn1ncc(C2=NOC(C(=O)NCc3ccc(OC)cc3)C2)c1C (stereo not given)	-3	1%	-15	-1.0%	12%	0%	5.2
Cn1cccc1C(=O)N1CCN(c2cccc(C(F)(F)F)c2)CC1	-15	?	0	-1.1%	-17%	1%	5.4
CCNc1ccc(C(=O)Nc2ccc3nc(C)sc3c2)cc1[N+](=O)[O-]	-3	?	17	-0.1%	-3%	-28%	1.9
COc1ccc(NS(=O)(=O)c2ccc3c(c2)CCO3)cc1	-11	1%	-4	.	2%	22%	0.2
COc1ccccc1CN(C)C(=O)CN1CCN(CC(=O)Nc2ccccc2Cl)CC1	-13	-12%	3	2.2%	?	.	.
O=C(NCCN1CCOCC1)c1csc2c1CCCC2	-30	-37%[inhibitor]	25	1.2%	1%	11%	2.8
COc1ccc(-c2c(C)c3ccc(O)cc3oc2=O)cc1OC	3	?	8	3.9%	-20%	-22%	-6.9
O=C(NC1CCCN(Cc2ccc(Cl)cc2)C1)c1ccoc1 (stereo not given)	4	-29%	-1	-2.2%	-7%	16%	.
C/C(CC(=O)Nc1cc(C)ccn1)=N\NC(=O)c1ccc(C)cc1	-1	3%[15.4 µM]	-12	.	9%	-1%	0.0
CC(C)NS(=O)(=O)c1ccc(OCC(=O)NCCC2=CCCCC2)cc1	-6	2%	19	-1.5%	7%	5%	1.8
CN(CC(=O)Nc1ccccc1C(F)(F)F)C(=O)CSCc1ccccc1	-4	-16%[15.4 µM]	-22	.	3%	.	.
CCc1nn(C(C)C(=O)N2CCc3ccccc3C2)c(=O)c2cc3occc3n12 (stereo not given)	-5	9%	2	-5.6%	-20%	19%	1.2
CC(=O)O[C@]1(C(C)=O)CC[C@H]2[C@@H]3C[C@H](C)C4=CC(=O)CC[C@]4(C)[C@H]3CC[C@@]21C	-4&0	.	6&12	-0.8%&2.6%	?	-14%	2.9
CCOc1ccccc1/C=N/Nc1ccc(Cl)nn1	3	3%[15.4 µM]	4	-2.0%	-2%	4%	0.2
CCOC(=O)Cc1nnc(NC(=O)CSc2ccc(C)cc2)s1	12	-2%	-5	-7.2%	12%	12%	-0.2
CCC(C(=O)Nc1ccccc1OC)n1c(C(=O)OC)cc2ccsc21 (stereo not given)	-5	0%	9	-3.9%	-14%	1%	4.1
Cc1ccc(C(=O)N2CCN(c3ccccn3)CC2)cc1C	-11	-4%	11	-21%	2%	22%	-1.5
O=C(CCNC(=O)c1ccc(Cl)cc1)NC1CCCc2ccccc21 (stereo not given)	27	26%	5	0.3%	9%	.	.
Nc1nc(SCC(=O)N2CCc3ccccc32)[nH]c(=O)c1-c1ccccc1	?	-8%	13	1.2%	5%	-13%	-0.4
CCn1c(SCC(=O)Nc2c(C)n(C)n(-c3ccccc3)c2=O)nnc1-c1cccc(C)c1	27	-16%	7	-2.2%	-5%	17%	0.5
CC(=O)Nc1ccc(-c2csc(Nc3ccccn3)n2)cc1	7	-1%	.	0.6%	-15%	-27%	-0.7
O=C(COC(=O)Cc1ccc(F)cc1)Nc1ccc2[nH]c(=O)[nH]c2c1	13	-31%	-2	?	6%	.	.
Cc1cccc(Cn2c(=O)n(CCCC(=O)NCc3ccco3)c(=O)c3ccccc32)c1	-5	14%[15.4 µM]	23	-16%	-6%	-8%	2.7
Cc1ccc(CSCC(=O)N2CCOCC2)cc1	14	-14%	-3	1.7%	4%	-9%	-1.5
CCc1cc(C(=O)N2CCCC(CO)(Cc3ccc(F)cc3)C2)n(C)n1 (stereo not given)	9	3%	5	0.9%	-2%	12%	5.0
O=C(NN=Cc1ccc(F)cc1)c1cccc(S(=O)(=O)N2CCCC2)c1	.	12%	-3	-0.4%	-11%	.	.
Cc1cc(C(=O)CSc2nnc(Nc3ccccc3)s2)c(C)n1CC1CCCO1 (stereo not given)	5	-16%	-2	1.2%	?	1%	1.8
NC(=NCCc1ccccc1)c1cccc([N+](=O)[O-])c1	18	-1%	33	2.9%	4%	2%	-0.1
O=C(NCCO)C(=O)NCC1CCCN1S(=O)(=O)c1cccs1 (stereo not given)	15	27%	4	-1.3%	4%	.	.
c1ccc2c(c1)[nH]c1nc3nncn3nc12	-4	2%	11	-2.5%	-8%	4%	-4.0
COc1ccc(N(C(=O)c2ccccc2)S(=O)(=O)c2cccs2)cc1	7	9%[15.4 µM]	17	.	-13%	2%	0.2
Cc1ccc2nc(NC(=O)C3CCCN(S(=O)(=O)c4cccnc4)C3)sc2c1 (stereo not given)	-20	0%	25	-0.6%	-14%	8%	2.7
COc1cc([N+](=O)[O-])cc(/C=N/NC(=O)C(C)Nc2cccc3ccccc23)c1O (stereo not given)	17	?	-1	29%	-5%	4%	-0.2
Cc1cccc(C(=O)Nc2c(C(=O)N3CCN(C)CC3)cnn2-c2ccccc2)c1	.	-3%	-12	1.5%	15%	.	.
COCCn1c(=S)[nH]c2cc(C(=O)N3CCN(c4ccc(F)cc4)CC3)ccc2c1=O	6	-43%	0	-1.4%	-10%	5%	1.8
COc1cc(NS(=O)(=O)c2ccc(NC(=O)/C=C/c3cccc([N+](=O)[O-])c3)cc2)ncn1	-11	?	10	.	-21%	-3%	-1.1
NC(=O)CSc1nnc2sc3ccccc3n12	-3	?	17	0.8%	13%	0%	3.3
N#C/C(=C(\O)C(F)(F)F)c1nnc2n1CCCCC2	11	-2%[15.4 µM]	39	0.3%	5%	11%	-0.1
O=C(/C=C/c1ccccc1)OCCCN=C1NS(=O)(=O)c2ccccc21	-14	19%	16	.	-18%	10%	0.7
CC(=O)Nc1c2c(nn1-c1ccccc1C)CS(=O)(=O)C2	15	-25%[15.4 µM]	2	.	5%	18%	4.6
CN(Cc1ccccc1)C(=O)CSc1cc(=O)n(C)c2ccccc12	-3	?	3	.	1%	9%	-6.5
COc1cccc(OCC(=O)Nc2ccc(OC)c(OC)c2)c1	0	-37%[inhibitor]	25	-1.9%	-10%	5%	-0.2
C/C(=N\NC(=S)NC(C)C)c1ccc(Cl)s1	-14	10%	57	-15%	10%	12%	0.1
COc1cccc(-c2ccc(C3=CC(=O)CC(C)(C)C3=O)cc2)c1OC	.	2%	-3	1.3%	.	.	.
Cc1cccc(-n2ncc3c(N4CCOCC4)ncnc32)c1	?	13%	-4	-9.9%	-12%	-2%	-1.4
CC(C)N(C(=O)[C@H]1C[C@H](CC(=O)NC(C)(C)C)C(=O)N2CCc3c([nH]c4cc(-c5ccco5)ccc34)[C@]12C)C(C)C	.	.	-6	4.6%	-20%	.	.
COc1cc(OC)c(NC(=O)c2ccccc2F)cc1Cl	0	?	31	18%	-6%	20%	-0.6
CC(C)OC(=O)CSc1nc(-c2ccc(F)cc2)cc(C(F)(F)F)n1	?	10%	75	-5.9%	-1%	5%	5.9
O=C(NC1CCC(O)CC1)c1ccc(-c2ccc(Cl)cc2)o1 (stereo not given)	-5	19%[15.4 µM]	9	25µM*	0%	.	.
Oc1ccccc1C1=NCCNC(C(F)(F)F)=C1	2	-35%[inhibitor]	12	.	1%	6%	-1.6
CCOC(=O)c1cn2nc(Oc3ccc(OC)cc3)ccc2n1	?	0%	-3	-1.5%	-4%	11%	-1.0
COC(=O)c1sc(NC(=O)/C=C/c2ccc(C)o2)nc1C	?	2%	-16	-5.0%	-3%	?	6.8
New compounds follow
SMILES	TRPV1 potentiator	gsp agonist	TRPML1 blocker	ClpP mod	gsp antagonist	Sfp PPTase inh	Menin-MLL FL inh
CN1C(=O)c2ccc(C(=O)NCc3ccccc3)cc2C1=O	-6	-13%	19	0.6%	-6%	-4%	3.9
Cn1ccc(C(=O)OCC(=O)Nc2ccccc2Cl)n1	15	-7%	2	.	7%	19%	3.2
NC(=O)C1CCN(C(=O)c2cc(-c3ccc(Cl)cc3)nc3ccccc23)CC1	.	?	?	-6.7%	-11%	.	.
Cc1csc(NC(=O)CSc2nnc(-c3cccnc3)o2)n1	-18	29%	3	2.1%	4%	6%	.
CCC1C(=O)N=C(SCC(=O)Nc2ccc(C(=O)OC)cc2)NC1=O (stereo not given)	11	-1%	13	-1.3%	-1%	4%	4.6
Cc1ccc(Sc2c(C#N)c(-c3ccccc3)nn2C)cc1	7	0%	49	-0.1%	-6%	-11%	-1.3
Cc1ccc(N(O)C(=O)NCCCCNC(=O)N(O)c2ccc(C)cc2)cc1	7	27%	5	.	-4%	-11%	-7.4
Oc1ccc(Cl)cc1-c1cc(-c2ccccc2Cl)[nH]n1	?	1%	-2	-2.2%	-15%	17%	-0.8
c1ccc(Oc2ccc(-c3ccnc4nc(N5CCOCC5)nn34)cc2)cc1	-4	34%	50	.	-17%	-12%	-1.3
OCCN(CCCn1c(C(F)(F)F)nc2ccccc21)c1nc(CN2CCCCC2)cs1	24	?	7	0.2%	4%	-8%	0.6
CC12CC3(C)CC(C)(C1)CC(C(=O)NC(=S)N1CCOCC1)(C2)C3	-33	-44%	7	0.2%	2%	9%	4.9
CCOc1ccc(/C=N/NC(=O)c2cc3c(OC)cccc3[nH]2)cc1	4	?	57	3.8%	-5%	-14%	1.1

Compound activity as filed in PubChem BioAssay.
